# MgrA DNA FP: S. aureus MgrA-DNA binding modulation; fluorescence polarization; inhibition, %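 (about 10 µg/mL by stock and volumes)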; 84,000 tested, 0.13% active; AID 602314;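 active = above 50% in either of two replicates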;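 note: 0% = protein plus DNA without compound and 100% = DNA alone without protein; higher means less MgrA bound to DNA so lower polarization; one replicate is shown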
# S aureus helic: S. aureus DNA helicase inhibition; purified S. aureus helicase, fluorescence unwinding assay; about half of the hits fall short of the stated cut; inhibition, %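 (tested at about 80 µM)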; 120,000 tested, 0.05% active; AID 485395;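 active = both duplicates at 50% or more, or one of them with a favoured structure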;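 note: 0% = mean of negative control wells and 100% = mean of positive control wells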
# The depositor's hits bear a star; nt = no result given. Some of the compounds tested; count on the stated rates, not on these rows.
SMILES,MgrA DNA FP,S aureus helic
COC(=O)c1ccccc1NC(=S)Sc1ccc(Cl)cc1,0.5,nt
C(=N\N1CCN(c2ccccn2)CC1)/c1ccccn1,0.3,13
Cc1cc(I)ccc1N,nt,-8
COc1ccc(OCC2c3cc(OC)c(OC)cc3CCN2C(=O)Nc2ccc(Cl)cc2)cc1 (stereo not drawn),-1.5,8
CSc1nnc2c(n1)OC(c1c(C)nn(-c3ccccc3)c1Cl)Nc1ccccc1-2 (stereo not drawn),0.1,nt
COc1ccc([C@@H]2CC(=O)c3c(O)cc(O[C@@H]4OC(CO[C@@H]5OC(C)[C@H](O)[C@H](O)C5O)[C@@H](O)[C@@H](O)C4O)cc3O2)cc1O (stereo partly drawn),-1.6,nt
CSc1nnc2c(n1)OC(c1ccccc1)Nc1ccccc1-2 (stereo not drawn),2.0,18
O=C(c1cc(C2CC2)on1)N1CCc2ccccc2C1,1.7,0
CC(C)CC(NC(=O)c1ccc(Cl)cc1Cl)C(=O)N1CCN(c2ncccn2)CC1 (stereo not drawn),nt,17
COc1cc2[nH]c(=S)n(CCc3ccccc3)c(=O)c2cc1OC,0.2,9
CC(Nc1ccc(N2CCOCC2)cc1)C(=O)Nc1ccc(F)cc1Cl (stereo not drawn),nt,13
O=C1CCC(=O)N1CNc1ccccc1C(F)(F)F,-1.3,nt
Cc1c(C(=O)N2CCCCC2C)sc2nc(-c3ccccc3)cn12 (stereo not drawn),nt,-15
NNC(=O)c1cccs1,nt,-7
Cc1c(N=C2SCC(=O)N2/N=C\c2ccc(Br)cc2)c(=O)n(-c2ccccc2)n1C,2.9,-13
Cc1ccc(S(=O)(=O)NC(=O)N2CCCN(c3ncnc4scc(-c5ccccc5)c34)CC2)cc1,-2.1,nt
COc1ccc(CN(Cc2ccc(C(=O)NO)cc2)S(=O)(=O)c2ccc3c(c2)OCCO3)cc1OC,nt,1
COc1ccc2c(c1)C=C(C(=O)Nc1ccccc1)CO2,-0.1,nt
CCCCC(=O)Nc1cc(C)c2c(=O)oc3ccccc3c2n1,nt,5
O=C(O)C1C2CCC(CC2)C1C(=O)NCc1ccccc1 (stereo not drawn),6.8,-3
COc1ccc(C(=O)Sc2ccc(C)cc2)cc1OC,1.8,6
CCN(CC)c1ccc(CNc2ccc3c(c2)ncn3C(C)(C)C)cc1,0.6,-8
CN(CC(=O)Nc1ccc(F)cc1)C(=O)CSc1nnc2n1CCCCC2,nt,6
CCS(=O)(=O)N1Cc2ccccc2CC1C(=O)OCc1ccc(C#N)cc1 (stereo not drawn),nt,8
CCS(=O)(=O)NCCc1sc(C)nc1C,nt,-17
CCOc1ccc(N2C(=O)CC(Sc3nccc(C)n3)C2=O)cc1 (stereo not drawn),3.8,17
CCN(CC)c1ccc2cc(-c3nnc(-c4cccs4)o3)c(=O)oc2c1,nt,-169
O=C(COc1ccc(Cl)cc1Cl)Nc1nc2ccccc2[nH]1,-2.1,-24
Cc1cc(N2CCCC2=O)c(NC(=O)C2CCCCC2)cc1NC(=O)C1CCCCC1,-2.6,3
O=c1c2oc3ccccc3c2n(Cc2ccccc2)c(=O)n1Cc1ccccc1,0.0,1
CN1OC(CO)CC1c1ccccc1 (stereo not drawn),1.2,nt
COCCn1c(SCc2nc3ccccc3c(=O)[nH]2)nnc1-c1ccncc1,nt,-14
CCOC(=O)c1ccc(-c2cccc(C(F)(F)F)c2)o1,2.1,-15
CC1CC(Nc2ccccc2)c2ccccc2N1C(=O)c1ccncc1 (stereo not drawn),3.5,6
CCc1cc2c(cc3c(=O)[nH]nc(CC)n32)s1,nt,7
CCOc1ccc(C(=O)OCC(=O)Nc2ccc(N3CCOCC3)cc2)cc1,nt,17
CCC/C(O)=C1\C(=O)CC(C)(C)CC1=Nc1ccncc1,4.0,2
COC(=O)N/N=C\c1ccc(OC(=O)c2ccco2)cc1,nt,8
NC(=O)C1CCN(C(=O)CSc2ccccn2)CC1,nt,-7
Cc1ccc(NC(=O)c2c(F)cccc2Cl)cc1NS(C)(=O)=O,-0.9,nt
COc1ccc(OCCC(=O)Oc2ccc(OC)cc2)cc1,nt,-8
O=S(=O)(c1ccccc1)c1ccc(S(=O)(=O)N2CCCCC2)s1,-1.4,nt
N#Cc1c(F)cccc1C(C#N)c1ccc(Cl)cc1Cl (stereo not drawn),0.0,nt
Cc1c(Cl)cccc1N1C(=O)c2cccnc2C1=O,nt,26
Cc1ccccc1Cn1ccc(NC(=O)CCSc2nc(-c3ccco3)cc(C(F)(F)F)n2)n1,nt,-12

# An excerpt of these results, with the structure last:
MgrA DNA FP	S aureus helic	Structure
nt	-7	NNC(=O)c1cccs1
1.8	6	COc1ccc(C(=O)Sc2ccc(C)cc2)cc1OC
0.2	9	COc1cc2[nH]c(=S)n(CCc3ccccc3)c(=O)c2cc1OC
nt	-14	COCCn1c(SCc2nc3ccccc3c(=O)[nH]2)nnc1-c1ccncc1

# The listing continues.
SMILES,MgrA DNA FP,S aureus helic
CC(Sc1nc2ccccc2c(=O)n1Cc1ccco1)C(=O)Nc1ccc2c(c1)OCCO2 (stereo not drawn),nt,10
CC(Oc1ccccc1)C(=O)N1CCCc2ccccc21 (stereo not drawn),-1.9,10
Cc1ccc2cnn(CC(=O)NCc3ccccc3)c2c1,nt,7
CS/C(NC1CCCCC1)=C(/C#N)S(=O)(=O)c1ccc(Cl)cc1,0.0,nt
O=C(COC(=O)c1cc(-c2ccc(F)cc2)nc2ccccc12)Nc1ccccc1F,1.1,-1
Cc1ccccc1C(=O)N1CCC(C(=O)Nc2ccc(F)c(Cl)c2)CC1,nt,6
O=C(Nc1ccccc1-c1nc2ccccc2[nH]1)c1ccccc1F,nt,6
O=C(c1cnn(C(=O)CN2C(=O)COc3ccccc32)c1)c1ccccc1O,nt,15
NNC(=O)CC(=O)NC1(Cc2ccc(O)cc2)CCCCC1,-0.6,-1
Cc1cccc(CC(=O)NC2CCCC2)c1,4.7,-4
CCN1CCN(CCC(=O)Nc2ccc(F)cc2)CC1,2.9,-2
Cc1ccc2c(c1)C(SCC(=O)O)CC1(CCCC1)O2 (stereo not drawn),nt,14
NC(=S)NCc1ccccc1,nt,-5
CSc1cccc(N=C2C(=O)Nc3ccccc32)c1,1.3,-3
CCOC(=O)N1CCN(C(=O)c2cn(CC)c3ccc(S(=O)(=O)N4CCCCC4)cc3c2=O)CC1,nt,-19
O=C(NCCSc1c[nH]c2ccccc12)c1ccc(N2C(=O)CCC2=O)cc1,nt,-5
COC(=O)c1c(COC(=O)/C=C/c2ccc(Br)o2)nc2ccccc2c1C,nt,6
CCN(CC)C(=O)CSc1nc2cc3c(cc2c(=O)n1CCCC(=O)NCCc1ccc(OC)c(OC)c1)OCO3,nt,-2
Cc1nc2scc(-c3cccs3)c2c(=O)o1,-2.2,9
COc1ccc(CNC(=O)NC2CCCCC2)cc1,0.5,5
N#CCc1nc(-c2ccc(-c3ccccc3)cc2)cs1,-1.4,15
Cc1cccc(OCCC(=O)O)c1,nt,-16
S=c1[nH]c(-c2ccccc2)cn1-c1ccccc1,0.2,-5
Brc1ccc(CSc2nnc(SCc3ccc(Br)cc3)s2)cc1,1.5,nt
Cc1c(C)[n+](=O)c2c(n1[O-])CCCCC2,nt,-18
CN(C(=O)c1ccc(S(=O)(=O)N2CCCC2)cc1)c1ccccc1,0.2,-3
NS(=O)(=O)c1ccc(Sc2ccc(Cl)cc2)s1,-0.3,nt
C/C(C=Nc1ccccc1)=C\Nc1ccccc1,-3.0,-6
CCCS(=O)(=O)Nc1ccc(N2CCN(c3ccc(C(F)(F)F)cn3)CC2)nc1,nt,-17
Cc1cc(N(C)S(=O)(=O)c2ccc(N)cc2)nc(C)n1,1.5,-8
OCc1ccccc1-c1ccccc1,-0.7,nt
COC(=O)c1ccccc1NC(=O)c1ccc2c(c1)OCO2,-2.5,9
O=CN1CCN(C(=O)COc2ccc(Br)cc2)CC1,0.9,1
O=C(CN1C(=O)c2ccccc2S1(=O)=O)N1N=C2/C(=C/c3ccco3)CCCC2C1c1ccco1 (stereo not drawn),nt,-6
COc1ccc(NC2C=CS(=O)(=O)C2)cc1 (stereo not drawn),0.5,-4
CCc1ccccc1NC(=O)c1cccc(NC(=O)/C=C/c2ccco2)c1,3.2,2
CNc1nc2ccccn2c(=O)c1/C=C1\SC(=S)N(C)C1=O,-0.9,4
O=C(Cc1ccsc1)Oc1ccc2c(c1)OCO2,nt,7
CCC(=O)N(Cc1ccc(S(N)(=O)=O)cc1)C1CC(=O)N(c2ccccc2)C1=O (stereo not drawn),1.6,21
CCOc1cc(S(=O)(=O)NC2CC2)c(OCC)cc1-n1cnnn1,-0.8,0
CNC(=S)Nc1ccc(N2CCOCC2)cc1,nt,-8
Cc1cc(C)c(C#N)c(N2CCCC2)n1,3.0,-6
CCn1c(C(=O)NCc2ccc(OC)cc2)cc2sccc21,-1.1,7
O=C1NC(=O)NC2(N1)C(=O)Nc1ccccc12,-0.9,nt
CCCCc1ccc(NC(=O)/C=C2\SC(=O)NC2=O)cc1,nt,9
COc1cc(C2=NOC(C(=O)N3CCCc4ccccc43)C2)cc(OC)c1OC (stereo not drawn),nt,-10
CCOC(=O)c1cc(-c2ccccc2)nc2nc(N3CCCC3)sc12,nt,-5
COc1cc(OC)cc(C(=O)Nn2cc(C(=O)N3CCN(C)CC3)c3ccccc3c2=O)c1,-1.0,6
O=C1c2ccccc2-c2c(-c3ccccc3)nc3ccccc3c21,5.8,-4
COc1cccc2cc(C(=O)NC(C)=O)c(=Nc3ccc(C(F)(F)F)cc3)oc12,2.7,nt
Cc1nn(-c2ccccn2)c2c1C1C(C2)C1(C)C (stereo not drawn),0.6,-13
CCc1cc(C(=O)COc2ccc3ccccc3c2)c(O)cc1O,-2.5,16
CSC1=NNC(c2nn(C)cc2Cl)S1 (stereo not drawn),1.2,nt
COc1ccc(-c2csc(C3=C(O)CN(CCCN4CCOCC4)C3=N)n2)cc1OC,nt,-7
CC1CCC2C(=O)N(CNc3ccc(Br)cc3)C(=O)C2C1 (stereo not drawn),-1.3,nt
Cc1noc(C)c1C(=O)Nc1ccc2c(c1)OCCO2,-1.2,nt
CS(=O)(=O)c1ccc(-c2nnn(CC(=O)NC3CCCC3)n2)cc1,-1.7,16
c1ccc(-c2nnsc2-c2nc3ccccc3[nH]2)cc1,-1.0,-15
Cc1cc(Sc2ccc(C(F)(F)F)cc2[N+](=O)[O-])c(Cl)cc1Cl,0.9,nt
CCc1ccc(/C=C2\Cc3ccccc3C2=O)cc1,-2.3,8

# More structures follow.
SMILES,MgrA DNA FP,S aureus helic
O=C(CSc1nnnn1C1CCCC1)NCc1cccs1,-5.2,3
Cc1ccc(S(=O)(=O)Nc2cccc(C(=O)N3CCOCC3)c2)cc1,nt,35
O=C(O)c1cc(N(Cc2ccccc2O)Cc2cc(O)ccc2O)ccc1O,0.9,nt
c1ccc(C(Nc2nccs2)c2ccccc2)cc1,2.0,13
Cc1ccc(N=Cc2cc(Cl)cc(Cl)c2O)cc1NS(C)(=O)=O,4.2,nt
COC(=O)C1CN(Cc2csc(NC(C)=O)n2)c2ccccc2O1 (stereo not drawn),nt,1
CCN(CC)CC(O)Cn1c2c(c3cc(C)ccc31)CCCC2=O (stereo not drawn),nt,-16
O=C(NCc1ccccn1)c1cc2c(Cl)ccc3c2n1CCO3,nt,28
c1ccc(Nc2csc(N=C3CCCCC3)n2)cc1,3.4,1
Cc1ccccc1Cn1cc(S(=O)(=O)CC(=O)N2CCCCCC2)c2ccccc21,nt,20
Cc1ccc(-n2nc(C)c3c(C)cc(=O)n(CC(=O)NCc4ccco4)c32)cc1,nt,-6
Cc1cccc2c(=O)cc(C)n(CC(=O)N3CCCCC3)c12,nt,8
COc1cc(/C=N/NC(=O)c2cc(C3CC3)[nH]n2)ccc1O,nt,12
Cc1ccc(C(C)(C)CCN2CCCN(C)CC2)o1,-2.0,10
Cc1sc2c(c1C)c(=O)nc1n2C(CSc2nc3sc4c(c3c(=O)[nH]2)CCCC4)CS1 (stereo not drawn),nt,1
O=C1CC(c2ccc(S(=O)(=O)NCc3ccncc3)cc2)CN1 (stereo not drawn),-0.3,12
C=CCNc1nc(C(=O)OCC(=O)c2ccc[nH]2)cs1,nt,-11
O=C(/C=C/c1nnc2c3ccccc3cnn12)OCc1nnc(-c2cc3c(s2)CCCC3)o1,nt,1
CCCc1nnc(CSc2nc3ccccc3o2)o1,-0.9,-6
CC(C)(C)C(=O)CS(=O)(=O)c1ccc(Cl)cc1,nt,4
O=C(C1CCCN(S(=O)(=O)N2CCCCCC2)C1)N1CCN(c2cccc(C(F)(F)F)c2)CC1 (stereo not drawn),nt,-37
CCC(C)NC(N)=O (stereo not drawn),nt,0
Cc1ccc(S(=O)(=O)N2c3ccccc3OC2c2ccc(Cl)c(Cl)c2)cc1 (stereo not drawn),-1.8,nt
O=C(NC(=O)c1ccccc1N1CCCCC1)Nc1ccc(Cl)c(Cl)c1,-2.5,nt
CCC(C)NC(=O)c1nc2c(nnn2Cc2ccccc2Cl)c(=O)[nH]1 (stereo not drawn),-22,20

# Whole records, quoted from the list. Values in the order: MgrA DNA FP	S aureus helic
# Cc1ccc(S(=O)(=O)N2c3ccccc3OC2c2ccc(Cl)c(Cl)c2)cc1 (stereo not drawn) across the screens: -1.8	nt
# CCC(C)NC(N)=O (stereo not drawn) across the screens: nt	0
# O=C1CC(c2ccc(S(=O)(=O)NCc3ccncc3)cc2)CN1 (stereo not drawn) across the screens: -0.3	12
# CC(C)(C)C(=O)CS(=O)(=O)c1ccc(Cl)cc1 across the screens: nt	4
# CCC(C)NC(=O)c1nc2c(nnn2Cc2ccccc2Cl)c(=O)[nH]1 (stereo not drawn) across the screens: -22	20

# 3 entries from above, sorted by SMILES length, descending.
SMILES,MgrA DNA FP,S aureus helic
Cc1ccc(NC(=O)c2c(F)cccc2Cl)cc1NS(C)(=O)=O,-0.9,nt
COc1ccc2c(c1)C=C(C(=O)Nc1ccccc1)CO2,-0.1,nt
CCCc1nnc(CSc2nc3ccccc3o2)o1,-0.9,-6
